Bioassay records (PubChem)
Chronic BCR inh = blocks chronic active B-cell receptor signaling. hit rate 0.05% among 340,000. ABC-DLBCL IkBa-CBG/CBR reporter, luminescence ratio, 4 h. Potency, µM (highest dose often 46.1 µM), inactives show at the highest dose ratio change, negative = lower green/red ratio, hits mostly inhibitors. AID 493014; active = well fitted inhibition curve with a large enough effect in the signal ratio, with a control signal flat, not every such curve was filed as active; inconclusive = small, poorly fitted or top-dose-only effect, or effect the other way, or a change in a side signal; the % refers to the signal ratio;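 also: potency is read from the fitted curve at half-maximal effect; plate controls were basal doxycycline-induced cells for no effect and cells given 10 µM MG132 for full effect; MG132 reads +100%, hits lower the ratio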
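Doxycycline induced both beetle luciferases in TMD8 lymphoma cells; IKK-driven degradation limits the IkappaBalpha-fused green signal, while red luminescence normalises for cell number and nonspecific effects. Compounds tested up to 46 uM, 4 hrs.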
Mito fusion act = blocks mitochondrial division or promotes mitochondrial fusion; hit rate 0.23% among 320,000; S. cerevisiae fusion-defective mutant growth rescue, CellTiterGlo 48 h; Potency, µM (series often up to 46.1 µM), without a hit: at the highest dose growth rescue (activation), usual class: activators;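 also: potency is read from the fitted curve at half-maximal effect; % of control where 0% means no effect; nearly all actives have a fitted effect of over 45% in size; temperature-sensitive fusion mutants such as fzo1-1 at 37 °C on non-fermentable ethanol glycerol medium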
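Growth-rescue viability read-out: after 48 h at the non-permissive 37C in glycerol/ethanol YPEG, yeast mitochondrial fusion mutants are measured by CellTiterGlo luminescence; compounds (23 nl pinned per well) restoring growth score as division inhibitors or fusion activators.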
MBNL1-CUG inh = inhibitors of human MBNL1 binding to CUG repeat RNA | Potency, µM (series often up to 57.5 µM), without a hit: top-dose activity change, negative = inhibition, actives largely listed as inhibitors | Q9NR56 | hit rate 0.036% among 280,000 | TR-FRET MBNL1-His/biotin-(CUG)12 binding, 665/545 ratio; active = well fitted inhibition curve with a large enough effect in the signal ratio, with a control signal flat, not every such curve was filed as active; inconclusive = small, poorly fitted or top-dose-only effect, or effect the other way, or a change in a side signal; inactive = no such curve, though single readings can be large or run the other way; the % refers to the signal ratio; also: potency is read from the fitted curve at half-maximal effect; % is scaled to controls: 0 for no effect and ±100 for the full control effect
Target sequence (Q9NR56 whole entry, looked up): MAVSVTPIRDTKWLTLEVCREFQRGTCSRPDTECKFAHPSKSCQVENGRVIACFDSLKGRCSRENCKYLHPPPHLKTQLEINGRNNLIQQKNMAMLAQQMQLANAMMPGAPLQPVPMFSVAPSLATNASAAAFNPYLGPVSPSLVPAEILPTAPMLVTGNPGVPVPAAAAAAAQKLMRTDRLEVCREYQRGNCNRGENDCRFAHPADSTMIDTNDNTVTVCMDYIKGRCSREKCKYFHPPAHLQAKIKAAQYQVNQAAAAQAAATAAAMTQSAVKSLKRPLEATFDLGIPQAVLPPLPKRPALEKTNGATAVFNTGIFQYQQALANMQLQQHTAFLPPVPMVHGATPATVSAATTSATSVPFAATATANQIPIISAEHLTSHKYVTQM
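Inhibition of protein-RNA binding appears as loss of TR-FRET between terbium anti-His antibody on MBNL1-His and streptavidin-XL665 on biotin-(CUG)12. Activity is normalized to buffer-only and uninhibited-complex controls.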
USP2a block = inhibitors of human ubiquitin-specific protease USP2a; USP2 core, Ub-CHOP2 coupled fluorogenic reporter, 485/531; AID 463254; O75604; hit rate 0.01% among 330,000; Potency, µM (titrated, usually from 38.3 µM), for the others: top-dose activity change, negative = inhibition, most hits filed as inhibitors;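 also: potency is read from the fitted curve at half-maximal effect; plate controls were DMSO wells for no effect and full inhibition by NEM control for full effect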
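Cell-free coupled assay: 10nM USP2 core preincubated 30min RT with compound in Tris-HCl pH 8.0/CaCl2/CHAPS buffer, then 25nM Ub-CHOP2 and 25nM reporter substrate; fluorescence (Ex 485/Em 531) read after 60min RT, normalized to NEM inhibition, concentration-response curves fitted.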
TSHR antagonist = blocks TSH signaling through the human TSH receptor. AID 504810. activity change, negative = inhibition, % at 11.5 µM. P16473. TSHR-expressing cells, TSH-stimulated cAMP HTRF, 2 h; active compounds read low. hit rate 0.2% among 330,000;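 active = activity change below a set negative limit, meaning inhibition stronger than a set level, cut at about -70% in these data; inconclusive = activity change between two set negative limits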; also: % is scaled to controls: 0 for no effect and ±100 for the full control effect
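TSHR-expressing cells, 200/well, pre-treated with compound, then stimulated with EC80 TSH (4nM final) for 2 hours at 37 deg C. cAMP measured by competitive HTRF: anti-cAMP cryptate antibody in lysis buffer plus cAMP-d2, read after 30 minutes at room temperature.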
GALK inh = galactokinase (human) inhibition; P51570; Purified GALK, Kinase-Glo residual ATP luminescence; Potency, µM (highest dose often 57.5 µM), for the others: at the top dose activity change, negative = inhibition, usual class: inhibitors; hit rate 0.007% among 270,000; AID 1868; also: potency is read from the fitted curve at half-maximal effect; % is scaled to controls: 0 for no effect and ±100 for the full control effect
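5 nM enzyme, 35 uM ATP, 100 uM galactose, 20 mM HEPES pH8.0, 5 mM MgCl2; 1 h RT; residual ATP by Kinase-Glo Plus luminescence, qHTS format.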
The depositor's hits bear a star; ? = inconclusive; · = no result given. Unless noted, calls follow the shape of the dose curve; as a rule, active = well fitted curve in the direction sought with a large enough effect; inconclusive = small, poorly fitted or top-dose-only effect, or another doubt; inactive = no such curve, though single readings can be large; an effect the other way counts as inactive or inconclusive.

| mol | Chronic BCR inh | Mito fusion act | MBNL1-CUG inh | USP2a block | TSHR antagonist | GALK inh |
| --- | --- | --- | --- | --- | --- | --- |
| CCOC(=O)c1ccc(N=C(CC)c2c(O)n(C)c(=O)n(C)c2=O)cc1 | -0.7% | -1.7% | 6.9% | 0.4% | 6.0 | · |
| CN(C)C1C(=O)C(C(N)=O)=C(O)C2(O)C(=O)C3=C(O)c4c(O)cccc4C(C)(O)C3CC12 (configuration not stated) | -6.2% | -1.3% | 11.7% | 4.6% | -11.7 | · |
| COc1cccc(CCNCc2c(F)cccc2F)c1 | 0.1% | -2.8% | 0.0% | 2.9% | -4.7 | -0.6% |
| O=c1c2ccccc2nc(-c2ccc(-c3ccccc3)cc2)n1-c1ccncc1 | -15.4% | 21.4% | -1.1% | 0.4% | -6.4 | -2.5% |
| Cc1c(CCN)ccc2c1[nH]c1ccccc12 | 12.2% | -45.4% | -4.0% | 3.2% | 6.9 | 1.1% |
| c1cncc(CNC2CCCCC2)c1 | 2.3% | 2.2% | -15.1% | 3.1% | 8.2 | -3.1% |
| Cc1ccc(CN2CCCC(C(=O)c3cccc(C(F)(F)F)c3)C2)o1 (configuration not stated) | -10.4% | -3.6% | 0.1% | 1.4% | -5.1 | -1.4% |
| CCCCP(=O)(O)CCC(=O)O | 13.6% | 0.4% | 0.0% | -0.7% | -9.5 | -1.9% |
| CCN(CC)CCCN=C(C)c1c(O)n(C2CCCCC2)c(=O)[nH]c1=O | -14.9% | -2.0% | 6.0% | -0.1% | 17.9 | 0.3% |
| CCCCCn1c(=O)c(C(=O)Nc2ccccc2Cl)c(O)c2ccccc21 | 4.4% | 2.2% | 5.3% | 0.6% | 21.4 | -6.9% |
| Cc1cccc(NC(=O)OC2CN3CCC2CC3)c1 (configuration not stated) | 0.2% | 4.2% | -3.3% | 2.9% | -2.8 | · |
| O=C(Nc1ccc(F)cc1)c1c(O)c2c(n(Cc3ccccc3)c1=O)CCCC2 | -1.8% | 2.8% | -29.4% | 3.0% | 22.4 | · |
| CCCCn1c(=O)c(C(=O)Nc2ccccc2S(N)(=O)=O)c(O)c2ccccc21 | 1.9% | 16.3% | 10.8% | ? | -2.0 | 3.6% |
| CCc1ccccc1NC(=O)CNC1CCCCC1 | ? | 1.8% | -7.2% | -1.0% | 4.6 | 0.3% |
| OC(COCc1ccc(Cl)cc1)CN1CC=C(c2ccccc2)CC1 (configuration not stated) | ? | 11.3% | -2.3% | -9.9% | -7.4 | 0.4% |
| O=C(c1cccnc1)C1CCCN(Cc2nc(-c3cnccn3)no2)C1 (configuration not stated) | ? | 2.2% | -0.7% | 8.7% | -4.0 | -0.1% |
| CCN(CC)C1=NC(=[N+](CC)CC)c2ccccc21 | -5.5% | -4.0% | 22.8% | 0.3% | -1.0 | 3.0% |

Structures shown so far that have nitrogen in an aromatic ring, in the order listed:
| mol | Chronic BCR inh | Mito fusion act | MBNL1-CUG inh | USP2a block | TSHR antagonist | GALK inh |
| --- | --- | --- | --- | --- | --- | --- |
| CCOC(=O)c1ccc(N=C(CC)c2c(O)n(C)c(=O)n(C)c2=O)cc1 | -0.7% | -1.7% | 6.9% | 0.4% | 6.0 | · |
| O=c1c2ccccc2nc(-c2ccc(-c3ccccc3)cc2)n1-c1ccncc1 | -15.4% | 21.4% | -1.1% | 0.4% | -6.4 | -2.5% |
| Cc1c(CCN)ccc2c1[nH]c1ccccc12 | 12.2% | -45.4% | -4.0% | 3.2% | 6.9 | 1.1% |
| c1cncc(CNC2CCCCC2)c1 | 2.3% | 2.2% | -15.1% | 3.1% | 8.2 | -3.1% |
| CCN(CC)CCCN=C(C)c1c(O)n(C2CCCCC2)c(=O)[nH]c1=O | -14.9% | -2.0% | 6.0% | -0.1% | 17.9 | 0.3% |
| CCCCCn1c(=O)c(C(=O)Nc2ccccc2Cl)c(O)c2ccccc21 | 4.4% | 2.2% | 5.3% | 0.6% | 21.4 | -6.9% |
| O=C(Nc1ccc(F)cc1)c1c(O)c2c(n(Cc3ccccc3)c1=O)CCCC2 | -1.8% | 2.8% | -29.4% | 3.0% | 22.4 | · |
| CCCCn1c(=O)c(C(=O)Nc2ccccc2S(N)(=O)=O)c(O)c2ccccc21 | 1.9% | 16.3% | 10.8% | ? | -2.0 | 3.6% |
| O=C(c1cccnc1)C1CCCN(Cc2nc(-c3cnccn3)no2)C1 (configuration not stated) | ? | 2.2% | -0.7% | 8.7% | -4.0 | -0.1% |

These rows are one share of the data, so the mix of outcomes need not match the whole.
